NPYLR7 agonist – mosquito NPYLR7 agonism. HEK293T NPYLR7/Galpha15, GCaMP6s calcium fluorescence. activation, % at 10 µM. 270,000 compounds, 0.15% hits; in the data active = activation above about 40%;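 also: 0% = vehicle and 100% = reference agonist at the receptor; some compounds past the cut are filed as inactive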
NPYLR7 agonist max-min – further read-out of NPYLR7 agonist, marked with its call; activation, %; measured here: Max-Min RFU normalised activation; some inactives read as strong as hits;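 span of the calcium signal over five minutes; 0% = vehicle and 100% = native peptide agonist; compound fluorescence can raise it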
An asterisk follows results filed as active; & = joins results of further samples. This is a subset; count on the stated rates, not on these rows.

The first four records, to show the layout:
SMILES	NPYLR7 agonist	NPYLR7 agonist max-min
CC(C)=CC(=O)N1CCC(c2nc(-c3ccncc3)no2)CC1	8	13
CN1N=C(c2nc(-c3cc(Br)cs3)no2)CCC1=O	0	0
Cc1[nH]c(=S)n(C2CCCCC2)c1C	3	2
COc1cc(C(=O)NS(=O)(=O)Cc2ccccc2)cc(OC)c1C	4	1

Main list, from the first entry:
SMILES	NPYLR7 agonist	NPYLR7 agonist max-min
CC(C)=CC(=O)N1CCC(c2nc(-c3ccncc3)no2)CC1	8	13
CN1N=C(c2nc(-c3cc(Br)cs3)no2)CCC1=O	0	0
Cc1[nH]c(=S)n(C2CCCCC2)c1C	3	2
COc1cc(C(=O)NS(=O)(=O)Cc2ccccc2)cc(OC)c1C	4	1
CCOC(=O)C1=C(COC(=O)Cn2nc(C)c([N+](=O)[O-])c2C)NC(=O)NC1C (stereo not drawn)	20	23
COc1ccc(-n2nc(-c3ccc(Cl)cc3)cc2NC(=O)CCSC)cc1	27	29
C=C(C)CN=c1scc(-c2ccco2)n1N=Cc1ccc(O)cc1O	-1	-8
Cc1ccc2c(c1)C(=O)NC1(CCN(C(=O)NC3CCCCC3)CC1)N2	17	11
Oc1cccc(C2c3[nH]c4ccccc4c3CCN2Cc2cnn(-c3ccccc3)c2)c1 (stereo not drawn)	3&0	3&-1
O=C(CSc1nc(=O)n2cc(Cl)ccc2n1)Nc1cccc(Cl)c1	22	23
COc1cc(C2CC(=O)N3CN(c4ccc(F)cc4)CSC3=C2C#N)cc(Br)c1O (stereo not drawn)	3	3
O=C(CCl)N1CCCN(c2nc(Cc3ccccc3)nc3onc(-c4ccccc4)c23)CC1	2	9
CCOCCCn1c(SCc2cccc(C(=O)OC)c2)nc2cc(C(=O)OCC)ccc21	7	4
Cc1cc(C(=O)NC(CC(C)(C)C)c2ccc(F)cc2)on1 (stereo not drawn)	3	1
COc1ccc(-c2csc(C(C)(NC(C)=O)c3ccccc3)n2)cn1 (stereo not drawn)	6	3
CCc1nc2ccc(C(=O)N3CCCC(C(N)=O)C3)cn2c1N(C=O)CC (stereo not drawn)	-8	-11
CC(C)(CO)Nc1nc(N2CCOCC2)nc(N2CCOCC2)n1	1	1
CCc1nc(CCNC(=O)NC)sc1C	9	13
COCCCN(CC(=O)N(CCc1c[nH]c2ccccc12)Cc1ccc(F)cc1)C(=O)c1ccc([N+](=O)[O-])cc1	13	12
C=CCNC(NC(=O)OCC)(C(F)(F)F)C(F)(F)F	1	-1
COCc1ccc2ccccc2c1-c1ccc(C(=O)N(C)C)cc1	12	7
CC1(C(=O)NS(=O)(=O)c2ccc3ccccc3c2)CCN1C(=O)Cc1cccs1 (stereo not drawn)	5	6
CC(=O)Nc1cccc(-n2cnn(CN(C)CC3CCCCC3)c2=S)c1	8	5
O=C(NCC1CCCN(Cc2ccc3c(c2)CCO3)C1)c1n[nH]c2ccccc12 (stereo not drawn)	5	1
CSc1nnc2ccc(-c3ccc(Br)cc3)nn12	-10	-6
CCc1nc(CN2CCCCC2C)cs1 (stereo not drawn)	16	10
CN(C(=O)c1ccc(N=Cc2nc(-c3cccc4ccccc34)oc2O)cc1)c1ccccc1	-4	-5
Cc1nn(C)c(C)c1C(C)NC1CCN(c2ccc(C(=O)NCc3ccc4c(c3)OCO4)cc2)CC1 (stereo not drawn)	6	5
O=S(=O)(Nc1ccc2nc(-c3cccnc3)nn2c1)c1ccoc1	2	-1
O=C(CSc1nc2[nH]ncc2c(=O)[nH]1)OCc1ccccc1	5	6
CCc1cc(=O)oc2c(C)c(OCc3nn[nH]n3)ccc12	-5	-8
COc1ccc(S(=O)(=O)N2CCN(c3nc4ccccc4nc3-c3ccccc3)CC2)cc1OC	27	21
CN(Cc1ccccc1N1CCOCC1)C(=O)C1CCCN(C(=O)Nc2ccccc2)C1 (stereo not drawn)	0	0
Cc1cccc(Cc2nnc(CCC(=O)N3CCCC3c3ccc(F)cc3)o2)c1 (stereo not drawn)	18&-3	8&-2
COC(=O)CC1c2cccnc2C(=O)N1c1c(Cl)cccc1Cl (stereo not drawn)	4	7
Cc1ccccc1N1CC(c2nc3ccccc3n2CC(=O)OC(C)C)CC1=O (stereo not drawn)	6	9
O=C(Nc1cccc(F)c1)N1CCc2nc(Nc3cc(Cl)cc(Cl)c3)ncc2C1	1	0
O=C1CC2(CCN(c3ccnc4c(C(F)(F)F)cccc34)CC2)CN1	6	2
COc1cc(OC)cc(C(=O)N2CCN(c3ccc(Cl)cc3)C(=O)C2C)c1 (stereo not drawn)	-2	5
Cc1cccc(-c2noc(CCC(=O)N3CCCN4CCC[C@H]4C3)n2)c1	14	11
Cc1nn(-c2ccc(F)cc2)c(C)c1C(=O)N1CC(c2ccncc2)C1	-3	-14
CC(Cn1cncn1)NS(=O)(=O)c1ccccc1 (stereo not drawn)	-1	14
O=C(NCCn1ncc2c(N3CCOCC3)ncnc21)c1cc(-c2ccccc2)on1	0	0
CCN1CCN(c2ccc(C(=O)C=Cc3cccc(O)c3)cc2F)CC1	14	5
CCOc1ccc(S(=O)(=O)N2CCCCC2)cc1NCC(=O)N1CCc2ccccc21	23	20
CC(C)NC(=O)[C@@]1(OCc2ccc(C#N)cc2)CC(OCc2c(F)cccc2F)[C@H](O)[C@H](O)C1 (stereo partly drawn)	4	12
Cc1nc(-c2ccccc2)ccc1C(=O)NCc1cc(Br)c[nH]1	10	9
Cc1ccc(NC(=O)CN2C(=O)c3ccccc3S2(=O)=O)c(Cl)c1	10	8
Cc1nc(C(F)(F)F)ccc1C(=O)N1CCC1(C)C(=O)NCc1ccc2c(c1)OCO2 (stereo not drawn)	4	1
CC(=C\c1ccccc1)/C=C1N=C(/C=C/c2ccccc2)OC/1=O	5	0

The list continues:
SMILES	NPYLR7 agonist	NPYLR7 agonist max-min
c1cc(CN2CCC(c3ccnc(-c4ccncc4)c3)C2)n(-c2nccs2)c1 (stereo not drawn)	15	4
Cc1csc(SCc2cc(=O)c(OC(=O)c3ccc(Br)cc3)co2)n1	14	4
Cc1ccccc1CN1CCNC(=O)C1CC(=O)NC1(c2ccccc2)CC1 (stereo not drawn)	1	-2
Cc1ccc(C(=O)Nc2cccc(CNCCCN3CCCC3=O)c2)cc1	5	0
Cc1ccc(NC(=O)NC(=O)N(C(C)C)S(C)(=O)=O)nc1	3	-1
O=C(N1CCc2ccc(S(=O)(=O)N3CCC(c4c[nH]c5ccc(F)cc45)CC3)cc2C1)C(F)(F)F	29	16
CCC1CCC(C(=O)NCc2nc(CCc3ccccc3)n[nH]2)CC1 (stereo not drawn)	-8	-10
Cc1ccc(-n2nc(C(=O)NCc3ccccn3)c(=O)n(Cc3ccccc3Cl)c2=O)cc1C	-6	3
O=C(CN1CCCC(OCc2ccccn2)C1)Nc1nc2ccccc2[nH]1 (stereo not drawn)	-4	-7
CCSc1nnc(-c2cc(Br)ccc2N)c(=O)[nH]1	5	2
CC(=NNC(=O)CSc1nnc(SCc2ccccc2)s1)c1cccc([N+](=O)[O-])c1	-3	-10
CCCCc1cn(CC2CCN(C(=O)c3ccco3)CC2)nn1	3	2
CN(C)S(=O)(=O)c1cc(NC(=S)NC2CC3CCC2C3)ccc1Cl (stereo not drawn)	1	4
COC(=O)c1ccc(C2c3c(oc4ccc(F)cc4c3=O)C(=O)N2C)cc1 (stereo not drawn)	-2	-3
CCC(C)N(CCC(=O)N1CCC(C(N)=O)CC1)c1nc(Cc2cccc(OC)c2)ns1 (stereo not drawn)	-2	-8
Cc1cc(C)n(Cc2cccc(C(=O)N3CCN4CCNC(=O)C4C3)c2)n1 (stereo not drawn)	-3	-3
COCc1nc(N)nc(N(C)C)n1	6	14
Cc1ccc2ncccc2c1S(=O)(=O)N(CCC#N)C(C)C1CC1 (stereo not drawn)	1	-2
COC(=O)c1c(NC(=O)c2cccs2)sc2c1C(C(=O)OC)CC2 (stereo not drawn)	2	-1
Cc1cc(C)n(C(C)C(=O)NC(C)(C)c2ccc3c(c2)OCCO3)n1 (stereo not drawn)	10	8

Fetched by structure from above (seven):
SMILES	NPYLR7 agonist	NPYLR7 agonist max-min
CCCCc1cn(CC2CCN(C(=O)c3ccco3)CC2)nn1	3	2
Cc1ccc2ncccc2c1S(=O)(=O)N(CCC#N)C(C)C1CC1 (stereo not drawn)	1	-2
COC(=O)c1ccc(C2c3c(oc4ccc(F)cc4c3=O)C(=O)N2C)cc1 (stereo not drawn)	-2	-3
Cc1cc(C)n(C(C)C(=O)NC(C)(C)c2ccc3c(c2)OCCO3)n1 (stereo not drawn)	10	8
CN(C)S(=O)(=O)c1cc(NC(=S)NC2CC3CCC2C3)ccc1Cl (stereo not drawn)	1	4
CCC(C)N(CCC(=O)N1CCC(C(N)=O)CC1)c1nc(Cc2cccc(OC)c2)ns1 (stereo not drawn)	-2	-8
COC(=O)c1c(NC(=O)c2cccs2)sc2c1C(C(=O)OC)CC2 (stereo not drawn)	2	-1

Carrying on:
SMILES	NPYLR7 agonist	NPYLR7 agonist max-min
CN(C)c1ccc(N2CCC(N)CC2)cc1	10	6
Cn1cccc1P(=Nc1ccc(Br)cc1)(c1cccn1C)c1cccn1C	5	3
C=CCCC(O)(CCC=C)c1ccc(CN(Cc2cccc(C)c2)Cc2ccco2)o1	-7	-2
Cc1[nH]nc2c1C(c1ccc(Br)cc1)C(C#N)C(=N)O2 (stereo not drawn)	1	-1
COc1ccc(C2CC(=O)c3cnc(N4CC(C)CC(C)C4)nc3C2)cc1 (stereo not drawn)	27	15
COC(=O)c1ccc(N2C(=O)CSC23C(=O)Nc2ccccc23)cc1 (stereo not drawn)	11	6
COC(=O)c1ccc2c(c1)CC(CNC(=O)c1ccc(OC)cc1OC)O2 (stereo not drawn)	21	13
Cc1cc(C)cc(-c2n[nH]c(=S)o2)c1	0	5
COc1ccccc1-c1nc(C)c(-c2ccc(SCC(=O)N3CCCCC3)nn2)s1	1	3
COCCC1CCCCN1C(=O)CN1C(=O)NC(=O)C1(C)C (stereo not drawn)	7	3
CNC(=O)[C@H]1O[C@@H](n2cnc3c(NCc4cccc(I)c4)ncnc32)C(O)[C@H]1O (stereo partly drawn)	37	-11
COC(=O)c1nnc2c(-c3ccccc3)c(C)nn2c1C	-11	-16
Cc1ccc(-n2c(=O)cc(N3CC(C)OC(C)C3)[nH]c2=O)cc1 (stereo not drawn)	9	10
O=C(N=Nc1c(O)[nH]c2ccccc12)c1cncc(Br)c1	0	-6
Cc1ccc(NC(=O)N(CC(=O)N(Cc2ccc(F)cc2)Cc2sccc2C)C2CCCCC2)cc1C	-1	-8
CC(C)=CCN1CCN(Cc2cn[nH]c2-c2ccc(Cl)cc2)CC1CCO (stereo not drawn)	3	3
NC(=O)c1cccc(CC2CCN(C(=O)c3cc(=O)c4ccccc4o3)C2)c1 (stereo not drawn)	3	3
CCOc1ccc(-c2n[nH]c(C)c2-c2ccc(OC)cc2)c(O)c1	1	-3
CCOC(=O)c1c(NC(=O)c2ccc(F)cc2)sc(C(=O)Nc2ccc(OC)cc2)c1C	-5	-10
O=C(O)CSc1nnc(-c2ccc(F)cc2)c2ccccc12	-3	-2
CCCC(=O)Nc1ccc(N(CC)C(=O)CCC)cc1	1	-3
COc1ccc(C)cc1CN1CCc2cc(S(N)(=O)=O)ccc21	6	4
C/C(=N/N=C1\NC(=O)C(CC(=O)Nc2ccccc2C(F)(F)F)S1)c1ccc([N+](=O)[O-])cc1 (stereo not drawn)	7	7
CC(NC(=O)c1cc(NC(=O)c2ccc(Br)cc2)ccc1N1CCCC1)c1ccccc1 (stereo not drawn)	-3	2
c1ccc(-n2ncc3c2ncn2nc(CSc4nc5ccccc5o4)nc32)cc1	17	7
O=C(c1ccccc1)N(c1ccc2oc(=O)sc2c1)S(=O)(=O)c1ccccc1	-7	-9
Cc1cc(C)c(C(O)c2ncc(-c3cccc(F)c3)[nH]2)c(C)c1 (stereo not drawn)	3	1
O=C1C[C@H]2C[C@@H](c3ccccc3)OC[C@]23NC(=NCC2CC2)S[C@H]13	9	20
COc1ccc(-c2ccc(=O)n(CCNS(=O)(=O)c3cccc(C)c3)n2)cc1	1	1
COCc1[nH]n2c(=O)cc(C)nc2c1-c1ccc(Cl)cc1	-16	-26
Cc1cc([N+](=O)[O-])nn1CC(=O)NCCCN1CCOCC1	0	0
COCCCNS(=O)(=O)c1ccc(OCCC(C)C)c(C(N)=O)c1	2	6
O=C(NCC1CCCN(Cc2ccc3c(c2)OCCO3)C1)c1cc2ccccc2[nH]1 (stereo not drawn)	5	3
O=C(NCC1CCCN(Cc2nc(-c3ccccc3)cs2)C1)c1ccc2c(c1)OCO2 (stereo not drawn)	3	0
Cc1nc(N(C)CCCc2c(C)n[nH]c2C)c2nc(C)oc2n1	3	0
O=S(=O)(Nc1cccc2cccnc12)c1cccc(Cl)c1	8	2
O=C(NCCc1cn2ccccc2n1)c1cc(COc2c(F)cccc2F)on1	-8	-6

Compound activity (PubChem BioAssay)
